Screening results (PubChem BioAssay)
ClpP mod: qHTS Assay for Activators of ClpP | purified B. subtilis ClpP, FRET peptide cleavage, 20 min | Potency, µM (highest dose often 57.5 µM), for inactives: top-dose activity change, negative = active | 340,000 compounds, 1.9% hits | ATP-dependent Clp protease proteolytic subunit (Bacillus subtilis (strain 168)), P80244; active = well fitted falling curve with a large enough effect; inconclusive = small, poorly fitted or top-dose-only effect; inactive = no such curve, though single readings can be large or run the other way; note: potency is the fitted concentration of half-maximal effect; the source files actives as falling curves though it sought activators and does not explain the sign; nearly all actives have a fitted effect of over 65% in size; many hits overshoot -100%
Target sequence (P80244 whole entry, looked up): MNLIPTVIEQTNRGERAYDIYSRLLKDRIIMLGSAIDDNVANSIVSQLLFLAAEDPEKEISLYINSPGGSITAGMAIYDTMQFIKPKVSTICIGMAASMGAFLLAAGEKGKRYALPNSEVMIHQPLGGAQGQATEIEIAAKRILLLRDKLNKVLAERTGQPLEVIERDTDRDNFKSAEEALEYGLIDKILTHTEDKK
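FRET quenching reversal measured ClpP activation: 10 microg/mL B. subtilis ClpP at pH 8 with the FRET-FV decapeptide, read at 430 nm after 320 nm excitation. The 20-min minus 0-min signal was scaled between DMSO/no-enzyme wells and ADEP (5.8 microM final).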
TRPV1 potentiator: human TRPV1 potentiation | Q8NER1 | TRPV1-expressing cells, Fluo-8 calcium influx, capsaicin EC20 potentiation; host cell line not named in the record; control for the full effect not named in the record | potentiation, % at 8.33 µM | 320,000 compounds, 0.02% hits | AID 540277; active means potentiation above 80%; inconclusive means 30% to 80%; inactive means below 30%; note: 0% is about no effect
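Fluo-8 calcium influx in TRPV1-expressing cells, kinetic read (ex 480/em 520 nm). Compound added and read 3 min for agonist activity, followed by capsaicin at EC20 final and 2 min further read for enhancement.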
Menin MLL FP FL: inhibitors of human menin-MLL interaction, wild-type MLL peptide. Fluorescence polarization, fluorescein-MLL peptide displacement from menin. FP activity change, % at 61.4 µM. 290,000 tested, under 10 active. AID 1766; inconclusive = falling polarisation curve, or a change in total fluorescence; inactive = total fluorescence flat and polarisation flat or rising; no compound was filed as active; the % refers to the polarisation; negative = inhibition;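 note: % of control where 0% means no effect; inhibitors lower the polarisation; unlabelled MLL peptide was the positive control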
TRPML1 blocker: human mucolipin-1 channel inhibition. Q9GZU1. 390,000 compounds, 0.02% hits. activity change, negative = inhibition, % (concentration not given with the values). TRPML1-inducible cells, Ca2+ dye fluorescence, FDSS; hits give low values; inhibition of EC80 agonist-evoked calcium signal; in the data active means activity change below about -50%; inconclusive means about -30% to -50%; inactive means above about -30%;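 note: stimulus is agonist 54-4 at its EC80 concentration; % is set by controls: 0 for no effect and ±100 for the full control effect; the text of the record puts the active cut at -80%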
Target sequence (Q9GZU1 whole entry, looked up): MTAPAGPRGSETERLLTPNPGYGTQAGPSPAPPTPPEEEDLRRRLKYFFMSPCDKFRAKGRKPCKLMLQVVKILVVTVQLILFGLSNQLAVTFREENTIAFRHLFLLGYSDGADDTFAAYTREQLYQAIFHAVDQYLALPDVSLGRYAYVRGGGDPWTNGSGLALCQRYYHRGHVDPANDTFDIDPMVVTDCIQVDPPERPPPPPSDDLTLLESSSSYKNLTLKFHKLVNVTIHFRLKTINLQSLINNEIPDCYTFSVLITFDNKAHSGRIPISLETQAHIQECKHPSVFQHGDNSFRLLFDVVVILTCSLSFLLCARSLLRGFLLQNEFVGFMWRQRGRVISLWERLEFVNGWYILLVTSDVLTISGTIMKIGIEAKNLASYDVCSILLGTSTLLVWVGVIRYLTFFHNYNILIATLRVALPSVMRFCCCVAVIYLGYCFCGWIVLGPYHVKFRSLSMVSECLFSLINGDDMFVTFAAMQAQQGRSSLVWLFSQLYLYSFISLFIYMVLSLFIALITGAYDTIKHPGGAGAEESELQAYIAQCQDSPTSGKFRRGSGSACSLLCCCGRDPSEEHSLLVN
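Tet-induced TRPML1-DL cells loaded with Ca8 no-wash calcium dye were read kinetically on FDSS. Compound addition was followed by EC80 agonist 54-4 (4 uM final); inhibition was read over 110 s.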
gsp ag: gsp mutant agonism. AID 624287. 340,000 compounds, 0.13% hits. Potency, µM (series often up to 76.9 µM), without a hit: at the highest dose activation (cAMP increase), usual class: activators. gsp mutant cells, cAMP HTRF, 30 min; control for the full effect not named in the record; active = well fitted activation curve with a large enough effect; inconclusive = small, poorly fitted or top-dose-only effect, or another doubt; inactive = no such curve, though single readings can be large or run the other way; cell line not stated here;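 note: phosphodiesterase inhibitor Ro 20-1724 added with compounds to block cAMP breakdown; potency is the fitted concentration of half-maximal effect; nearly all actives have a fitted effect of over 60% in size; about a fifth of the inactives were tested at one dose only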
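Cells in DMEM/10% FBS with G418 were pretreated with compounds in DMSO plus […] (300 uM stock) for 30 min at 37C. cAMP was measured by HTRF (cAMP-d2 plus anti-cAMP antibody-K) after 30 min at room temperature.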
Sfp inh: blocks B. subtilis Sfp PPTase activity | Potency, µM, without a hit: max response, negative = inhibition, most hits filed as inhibitors | Biochemical Sfp PPTase activity, qHTS | 310,000 compounds, 3.5% hits | AID 1490 | Q9F4F7; active = well fitted inhibition curve with a large enough effect; inconclusive = small, poorly fitted or top-dose-only effect, or another doubt; inactive = no such curve, though single readings can be large or run the other way;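 note: the enzyme is Sfp with the accession as filed and its product quenches rhodamine fluorescence; potency is the fitted concentration of half-maximal effect; 0% = enzyme reaction without inhibitor and -100% = no enzyme wells; top concentration of the series not given in the record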
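Compounds were incubated with enzyme (final 15 nM) for 15 min at room temperature before substrate addition started the reaction. Fluorescence at 525 nm excitation, 598 nm emission was recorded immediately and after 30 minutes.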
gsp antag: gsp mutant antagonism | gsp-mutant cells, cAMP HTRF, 30 min; control for the full effect not named in the record | Potency, µM (doses to about 76.9 µM), inactives show top-dose activity change, negative = inhibition, most hits filed as inhibitors | 340,000 compounds, 0.4% hits | AID 624288; active = falling curve of any shape with a large fitted effect; inconclusive = falling curve, mostly with a smaller effect; inactive = flat or rising curve; cell line not stated here;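 note: intracellular cAMP measured with PDE inhibitor Ro 20-1724 present during compound exposure; potency is the fitted concentration of half-maximal effect; % is set by controls: 0 for no effect and ±100 for the full control effect; nearly all actives have a fitted effect of over 65% in size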
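HTRF cAMP measurement after 30 min RT detection following 30 min, 37C compound treatment alongside […] (added as 300 uM solution) in G418-selected cells seeded at 2000/well and grown 16–24 h.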
Starred values were filed as active, the others as inactive; ? = inconclusive; . = no result given; & = joins results of further samples; [ ] = dose if it differs, or a comment.

SMILES	ClpP mod	TRPV1 potentiator	Menin MLL FP FL	TRPML1 blocker	gsp ag	Sfp inh	gsp antag
CN(C)C(CNc1ncnc2sc3c(c12)CCCCC3)c1ccco1 (stereo not drawn)	.	-19.0	.	11.4	-7.4%[15.4 µM]	-4.3%	-16.6%
CCC(COC)NC(=O)CCc1nnc(Cc2cccc(C(F)(F)F)c2)o1 (stereo not drawn)	.	-5.0	4.7	18.5	0.2%[15.4 µM]	14.6%	-0.5%
C=CCN1C(=O)C(O)(CC(=O)c2ccc(Cl)cc2)c2ccccc21 (stereo not drawn)	-3.9%	.	4.9	-15.0	-2.7%	?	-11.4%
CNc1nc2c(c(=O)n(C)c(=O)n2C)n1CCCc1ccccc1	-1.9%	-26.6	-0.2	-6.6	13.1%[15.4 µM]	2.4%	-2.3%
CC1CC(C)CN(S(=O)(=O)c2ccc(C(=O)NCCCn3ccnc3)cc2)C1 (stereo not drawn)	1.1%	-11.3	-6.3	-3.4	-46.5%[inhibitor]	-0.9%	6.2%
O=C(/C=C/c1ccc(-c2ccccc2)o1)c1ccccc1	0.8%	10.6	?	30.9	3.9%	15.8µM*	-9.5%
O=C(CSc1nnc(Nc2ccccc2)s1)NCc1ccco1	-1.8%	23.2	2.2	38.0	6.2%	5.1%	0.1%
CN1CCC(N(C)CC(=O)Nc2cccc(Oc3ccccc3)c2)CC1	1.7%	1.6	3.2	2.4	-28.6%	1.6%	10.6%
O=C(CSc1nnc2c(n1)[nH]c1ccccc12)Nc1ccc(N2CCOCC2)cc1	.	10.0	-1.7	9.2	-0.3%[15.4 µM]	7.94µM*	-6.3%
Cc1c(NC(=O)CCCCCN2C(=O)c3ccccc3C2=O)c(=O)n(-c2ccccc2)n1C	-0.2%	15.6	4.4	0.5	12.3%	10.4%	-6.2%
CN(CC(=O)NCc1ccc(F)cc1)Cc1ccc(Br)cc1	.	-11.7	-0.2	-2.1	-19.2%[15.4 µM]	-3.6%	6.7%
CC(C(=O)NCc1ccco1)n1nc(-c2ccccc2)c2cc(Cl)ccc21 (stereo not drawn)	-7.0%	-13.1	-1.7	6.0	-3.3%	9.4%	-16.2%
Cc1[nH]ccc(=O)c1OC1OC(CO)C(O)C(O)C1O (stereo not drawn)	-1.3%	5.7	-4.5	-12.1	.	4.2%	6.0%
O=C(NCc1cccnc1)Nc1cc(Cl)cc(Cl)c1	-2.4%	-10.8	-1.6	-3.6	13.0%	-4.5%	-6.1%
CC(C)(C)c1ccc(CNc2ccc([N+](=O)[O-])cn2)cc1	-3.4%	-8.8	4.4	0.3	-37.3%[inhibitor]	10.2%	3.1%
CC(C)N1CCc2c(sc(N)c2C#N)C1	25.1µM*	5.8	?	7.2	16.0%	-11.4%	1.9%
Cc1ccc(/C=C2\CCCC3=C2NC(=S)NC3c2ccc(C)cc2)cc1 (stereo not drawn)	15.8µM*	3.2	-3.5	-24.6	-18.2%	25.1µM*	-12.7%
Cc1cc(-c2onc(C)c2C(=O)N/N=C/c2ccccc2)no1	-0.4%	20.8	0.6	4.4	?	8.9%	-2.9%
CC(=O)c1ccc(OCC(O)CN2CCN(S(=O)(=O)c3cccc(Br)c3)CC2)cc1 (stereo not drawn)	0.4%	-4.0	1.6	-5.5	14.6%	10.1%	-31.2%
COc1cccc(N2C(=O)C3ON(c4ccccc4)C(c4cccs4)C3C2=O)c1 (stereo not drawn)	1.6%	.	5.7	0.1	-20.7%	21.2%	-9.0%
COC(=O)c1ccccc1NC(=O)C1CCN(C(=O)c2cc(OC)cc(OC)c2)CC1	?	12.4	2.4	6.0	-1.7%	9.0%	-30.6%
CCOC(=O)c1[nH]c2ccc(Cl)cc2c1NC(=O)/C=C/c1ccc2c(c1)OCO2	-1.6%	-9.4	1.0	10.2	-1.1%[15.4 µM]	12.5%	6.6%
COc1ccc2c(c1)CC(C1(O)C(=O)N(C)c3ccccc31)C2=O (stereo not drawn)	0.8%	4.9	-0.6	-7.6	-73.1%[inhibitor]	22.6%	-1.5%
CN(Cc1cccs1)C(=O)COC(=O)CNC(N)=O	0.0%	10.9	-3.1	20.4	7.8%	12.8%	11.6%
Cc1nn(-c2ccccc2)c(Cl)c1/C=N/NC(N)=O	.	1.2	-0.4	23.8	-1.9%[15.4 µM]	17.7%	17.4%
CCN(CC)S(=O)(=O)c1ccc(N2CC(C(=O)NC3(C)CCS(=O)(=O)C3)CC2=O)cc1 (stereo not drawn)	0.9%	-6.1	.	6.3	?	.	12.2%
C/C=C1\COC(C(=O)NCc2ccccc2)(C(F)(F)F)C=C1C=C(C)C (stereo not drawn)	1.3%	.	1.1	-11.1&3.1	.	1.8%	-8.1%
N#Cc1ccccc1NC(=O)CN1C(=O)NC2(CCCC2)C1=O	.	24.2	1.0	1.9	?	19.6%	0.0%
COc1ccc2cc(C3=CCCC3(C)C(=O)O)ccc2c1 (stereo not drawn)	.	.	.	9.0	6.7%	.	-22.3%
COc1ccc(S(=O)(=O)N(C)C2CCN(C)CC2)cc1	-1.8%	3.1	0.7	5.2	-20.9%	7.7%	6.9%
OCCCNc1nc(-c2ccc(Cl)cc2)nc2ccccc12	-4.2%	-11.1	1.1	-3.2	0.0%	-17.1%	-20.0%
CC(=O)c1ccccc1NC(=O)COc1ccc(N(C)S(=O)(=O)c2ccc(C)c(C)c2)cc1	-19.6%	7.2	.	34.0	-2.0%	.	-9.0%
CC(C)c1cc(C(=O)Nc2cccnc2)no1	0.4%	-2.6	2.8	-1.4	-30.8%	13.8%	6.3%
COc1ccc(-n2nnnc2SCC(=O)c2ccc(OC)c(OC)c2)cc1	15.5%	-0.6	9.1	-0.1	-4.7%	?	-8.4%
CC1(C)Cc2c(sc(NC(=O)c3ccc(S(=O)(=O)N4CCCCCC4)cc3)c2C#N)C(C)(C)N1	?	-0.8	-3.3	-0.4	-11.5%	0.9%	-1.7%
CC(C)Oc1cccc(C(=O)Nc2ccccc2N2CCOCC2)c1	-1.2%	-8.2	0.6	16.7	-37.7%[inhibitor]	5.0%	-9.5%
Cc1ccc(N=c2sc(C)c(C)n2C)cc1	-2.8%	-9.6	1.5	12.2	-3.5%	-8.9%	14.3%
COc1ccccc1NC(=O)CSc1nnnn1-c1ccc(F)cc1	-2.8%	3.5	0.1	-6.2	-0.9%[15.4 µM]	0.9%	-4.1%
CCOCc1nnc(NC(=O)CCC2CCCCC2)s1	?	?	-2.0	-12.9	0.8%[15.4 µM]	18.1%	1.0%
CC1=CC2(O)OCCN(CCO)C2=CC1=O (stereo not drawn)	-3.5%	-6.7	?	11.4	0.7%	56.2µM*	-6.6%
Cc1ccc(C(=O)N[C@@H](C)CN2C3=NC[C@H](C(C)C)N3C[C@H]2Cc2ccc(O)cc2)cc1Br	-0.7%	-9.3	-3.8	8.5	9.0%	39.8µM*	3.3%
Cc1cc2cc3c(=O)[nH]c(=O)[nH]c3nc2cc1C	.	-8.4	-16.6	.	.	-5.9%	.
CCCCC(=O)N1CC2(C)CN(C(=O)CCCC)CC(C)(C1)C2=O	-1.5%	-2.5	5.0	-10.8	-4.6%	8.4%	1.7%
Cc1cc(C)cc(NS(=O)(=O)c2ccc(F)cc2)c1	.	10.3	-0.9	1.7	1.2%[15.4 µM]	18.5%	6.5%
CCN1C(=O)C(C(=O)c2ccccc2)SC1=S (stereo not drawn)	.	-7.1	?	15.6	16.4%[15.4 µM]	20µM*	-65.7%
O=C1c2ccccc2C(=O)N1CCCCN(C(=O)c1cc([N+](=O)[O-])cc([N+](=O)[O-])c1)c1ccc(Cl)cc1	-5.4%	-7.6	0.6	30.9	10.9%[15.4 µM]	10.7%	5.6%
COc1ccc(CCNC(=O)Cc2ccc(OC)c(OC)c2)cc1OC	-2.9%	-1.9	-0.1	.	.	15.9%	0.7%
CN(CC(=O)Nc1ccc(Cl)c(Cl)c1)CC(=O)N1CCCCCC1	-0.7%	.	.	-2.0	-49.0%[inhibitor]	.	.
CCN(CC)c1ccc(/C=C/C(=O)C2C(=O)C=C(C)OC2=O)cc1 (stereo not drawn)	.	12.0	?	-12.1	?	-2.5%	-13.1%
CCOc1ccc(C(C)=O)cc1N1C(=O)C2C(C1=O)C1C=CC2C12CC2 (stereo not drawn)	-1.5%	-17.3	3.4	2.4	-20.3%	7.4%	-3.5%
O=C(OCC(=O)N1CCN(C(=O)c2ccco2)CC1)c1ccc(Cl)c(Cl)c1	-1.7%	-9.1	.	15.8	-60.7%[inhibitor]	.	-10.3%
C[C@H]1CN([C@@H](C)CO)S(=O)(=O)c2ccc(-c3cccc(F)c3)cc2O[C@@H]1CN(C)C	1.2%	.	.	0.9	-55.7%[inhibitor]	.	.
COc1ccc(NC(=O)Nc2ccc3nsnc3c2)cc1	0.0%	-5.4	-0.7	11.0	-3.6%	20.2%	-13.4%
COc1ccc(OC)c(C(=O)CSc2nc3ncccc3[nH]2)c1	31.6µM*	-6.9	-2.4	11.1	-6.1%	-12.8%	-2.0%
C=CCc1cccc2cc(C(=O)NCc3cccnc3)c(=O)oc12	-19.7%	-13.4	1.0	0.2	6.9%	1.4%	-4.9%
CCN(CC)CCCNC(=O)c1ccc2c3n(nc2c1)-c1ccc(Cl)cc1CO3	3.6%	-5.6	.	?	-21.9%	.	2.8%
Cc1ccc(S(=O)(=O)NCCN2CCOCC2)c(C)c1C	.	-5.3	0.5	40.3	24.1%	18.9%	-0.4%
CC(=O)Nc1ccc(NC(=O)C2CCCN(c3ncccn3)C2)cc1 (stereo not drawn)	-10.7%	-3.1	0.5	7.6	-24.1%	17.2%	-9.9%
O=c1c2c(nc3cc(-c4cccc(Cl)c4)[nH]n13)CCCC2	.	20.7	11.3	0.9	-5.0%[15.4 µM]	-2.4%	?
O=C(NC1CS(=O)(=O)CC1NCc1ccco1)c1ccccc1 (stereo not drawn)	-0.6%	-16.5	4.1	-8.9	-3.2%	18.8%	2.5%
